Screening data as filed in PubChem.
nsP2pro inh: Primary qHTS for inhibitors of NSP2Pro chikungunya virus (CHIKV); Polyprotein P1234 (Chikungunya virus (strain S27-African prototype)), Q8JUX6; FRET peptide cleavage, nsP2pro, fluorescence 1 h; Potency, µM (top dose mostly 24.9 µM), without a hit: top-dose activity change, negative = inhibition, most hits filed as inhibitors; 1.1% of 31,000 active; active means well fitted inhibition curve with a large enough effect; inconclusive means small, poorly fitted or top-dose-only effect; inactive means no such curve, though single readings can be large or run the other way; further: nearly all actives have a fitted effect of over 60% in size; a reference inhibitor and vehicle were the controls
Target sequence (Q8JUX6 whole entry, looked up): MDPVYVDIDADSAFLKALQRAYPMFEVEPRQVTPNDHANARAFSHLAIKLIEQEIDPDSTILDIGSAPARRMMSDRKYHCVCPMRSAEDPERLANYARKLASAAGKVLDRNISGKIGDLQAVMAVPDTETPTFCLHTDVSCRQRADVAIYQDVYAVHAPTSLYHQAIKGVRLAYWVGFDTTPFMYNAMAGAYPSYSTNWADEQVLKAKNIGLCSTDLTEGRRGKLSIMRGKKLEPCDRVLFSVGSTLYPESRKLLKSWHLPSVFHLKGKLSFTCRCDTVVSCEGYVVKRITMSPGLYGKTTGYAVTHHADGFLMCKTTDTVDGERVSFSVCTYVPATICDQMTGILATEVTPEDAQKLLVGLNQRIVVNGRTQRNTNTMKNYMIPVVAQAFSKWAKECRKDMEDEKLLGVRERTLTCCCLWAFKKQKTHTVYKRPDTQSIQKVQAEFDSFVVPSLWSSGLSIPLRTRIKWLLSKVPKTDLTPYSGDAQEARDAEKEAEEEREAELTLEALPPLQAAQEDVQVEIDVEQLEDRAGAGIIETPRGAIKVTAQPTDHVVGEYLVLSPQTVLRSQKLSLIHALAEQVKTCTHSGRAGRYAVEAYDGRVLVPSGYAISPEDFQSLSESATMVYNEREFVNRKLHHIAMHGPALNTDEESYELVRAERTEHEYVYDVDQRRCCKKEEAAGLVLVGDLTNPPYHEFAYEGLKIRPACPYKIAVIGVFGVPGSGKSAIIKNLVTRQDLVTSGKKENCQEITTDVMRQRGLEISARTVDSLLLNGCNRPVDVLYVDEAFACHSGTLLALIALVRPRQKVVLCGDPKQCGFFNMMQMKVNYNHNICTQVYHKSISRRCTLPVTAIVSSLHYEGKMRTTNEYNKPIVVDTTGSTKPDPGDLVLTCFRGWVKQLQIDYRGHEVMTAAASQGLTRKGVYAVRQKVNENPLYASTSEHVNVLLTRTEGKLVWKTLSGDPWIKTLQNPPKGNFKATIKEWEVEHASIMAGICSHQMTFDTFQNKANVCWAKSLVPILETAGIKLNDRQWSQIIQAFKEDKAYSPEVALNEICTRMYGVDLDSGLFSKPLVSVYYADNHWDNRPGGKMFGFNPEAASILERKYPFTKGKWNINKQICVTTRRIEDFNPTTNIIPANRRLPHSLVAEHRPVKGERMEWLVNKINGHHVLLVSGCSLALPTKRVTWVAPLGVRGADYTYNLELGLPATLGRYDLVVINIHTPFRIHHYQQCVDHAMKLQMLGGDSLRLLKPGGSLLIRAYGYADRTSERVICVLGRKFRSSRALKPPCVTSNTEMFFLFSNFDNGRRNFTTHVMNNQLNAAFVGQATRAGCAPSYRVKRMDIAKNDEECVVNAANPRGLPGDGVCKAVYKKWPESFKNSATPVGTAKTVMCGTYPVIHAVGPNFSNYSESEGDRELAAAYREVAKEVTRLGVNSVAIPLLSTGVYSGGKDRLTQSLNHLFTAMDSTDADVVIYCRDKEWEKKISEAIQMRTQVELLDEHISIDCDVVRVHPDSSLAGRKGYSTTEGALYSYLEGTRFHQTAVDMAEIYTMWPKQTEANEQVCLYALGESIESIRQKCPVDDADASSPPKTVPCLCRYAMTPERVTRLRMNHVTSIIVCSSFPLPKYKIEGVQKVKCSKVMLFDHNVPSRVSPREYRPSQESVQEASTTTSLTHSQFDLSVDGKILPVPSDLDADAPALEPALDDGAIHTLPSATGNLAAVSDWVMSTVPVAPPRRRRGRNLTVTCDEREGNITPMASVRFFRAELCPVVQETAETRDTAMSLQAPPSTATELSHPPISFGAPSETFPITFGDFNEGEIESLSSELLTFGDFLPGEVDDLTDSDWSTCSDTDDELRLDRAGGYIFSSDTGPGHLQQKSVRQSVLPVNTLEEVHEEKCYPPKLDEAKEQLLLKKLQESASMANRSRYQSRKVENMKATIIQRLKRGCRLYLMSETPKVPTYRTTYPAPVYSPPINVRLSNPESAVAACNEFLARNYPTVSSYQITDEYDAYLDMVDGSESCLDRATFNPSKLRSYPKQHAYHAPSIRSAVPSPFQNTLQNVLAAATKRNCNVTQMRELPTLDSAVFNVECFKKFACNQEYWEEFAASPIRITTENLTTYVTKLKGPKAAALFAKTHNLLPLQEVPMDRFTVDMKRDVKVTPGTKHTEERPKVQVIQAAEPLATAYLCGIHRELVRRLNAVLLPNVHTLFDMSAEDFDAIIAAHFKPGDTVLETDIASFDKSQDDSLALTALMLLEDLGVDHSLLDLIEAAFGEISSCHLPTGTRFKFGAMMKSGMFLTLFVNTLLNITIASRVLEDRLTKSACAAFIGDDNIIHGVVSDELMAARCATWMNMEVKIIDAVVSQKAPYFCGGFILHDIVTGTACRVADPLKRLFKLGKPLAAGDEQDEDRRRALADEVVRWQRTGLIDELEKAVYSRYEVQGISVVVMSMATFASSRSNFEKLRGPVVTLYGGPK
An asterisk follows results filed as active; & = joins results of further samples; [ ] = another dose, or the depositor's remark. On the % scale 0 is the no-effect control and ±100 the full control effect; potency means the concentration at half of the fitted maximal effect.

Cc1cn2c(=O)cc(COC(=O)c3ccc(NC(=O)COc4ccccc4F)cc3)nc2s1 was read as nsP2pro inh -5%.
Cn1nnnc1Sc1ncnc2scc(-c3ccc([N+](=O)[O-])cc3)c12 was read as nsP2pro inh -16%.
`CCOc1ccccc1-c1nnc2n1N=C(c1ccc(OC)c(OC)c1)CS2` gave nsP2pro inh inactive.
Cc1cccc(C[C@H](C(=O)O)N2C(=O)c3ccc(C(=O)O)cc3C2=O)c1 was read as nsP2pro inh -1%.
Screening Cc1ccc(-c2ccc(C)cn2)nc1 returned nsP2pro inh 53%&16%&51%[activator].
`Cc1cc(Nc2cccc(Cl)c2)nc2ccc(NC(=O)COc3ccc(Cl)cc3)cc12` gave nsP2pro inh -19%.
`Cc1ccc(C(C(=O)O)N2CCC(CCN3CCCC3=O)CC2)cc1C` (stereo not drawn) gave nsP2pro inh -2%.
Screening Fc1ccc(-c2ccc(Nc3nc(-c4ccncc4)nc4ccccc34)cc2F)cc1 returned nsP2pro inh inactive.
For O=C(c1ccc2c(c1)ncn2-c1cccc(Cl)c1)N1CCCCC1 the results were nsP2pro inh -14%.
For COc1ccc2cc(-c3nc(Cl)c4c5c(sc4n3)CCCC5)c(=O)oc2c1 the results were nsP2pro inh -15%.
`C#CCNC(=O)C1CCc2nnc(-c3ccc(Cl)cc3Cl)n21` (stereo not drawn) gave nsP2pro inh -24%.
Screening COc1ccc(CCNC(=O)Cn2cc(S(=O)(=O)Cc3cccc(Cl)c3)c3ccccc32)cc1OC returned nsP2pro inh -6%.
`CCOc1ccc2c(n1)CCN(C(=O)C1(c3ccccc3)CC1)C2` gave nsP2pro inh -6%.
CCCCCC/C=C\CCCCCCCc1cccc(O)c1C(=O)O was read as nsP2pro inh 12%.
`O=S1(=O)CCN(Cc2cc(NCC3CCOCC3)c3[nH]c(-c4ccccc4)cc3c2)CC1` gave nsP2pro inh -27%.
`CC[C@@H](C)[C@H]1C(=O)O[C@H](C(C)C)C(=O)N(C)[C@@H]([C@@H](C)CC)C(=O)O[C@H](C(C)C)C(=O)N(C)[C@@H]([C@H](C)CC)C(=O)O[C@H](C(C)C)C(=O)N1C` gave nsP2pro inh inconclusive.
For Nc1ccc(S(=O)(=O)Nc2ccccn2)cc1 the results were nsP2pro inh -1%.
COc1ccc(C)cc1NC(=O)Cn1c(=O)oc2cc(S(=O)(=O)NCc3ccccc3)ccc21 was read as nsP2pro inh -20%.
Screening CCN(CC)c1cc(CCC(=O)NCCc2ccccn2)ccn1 returned nsP2pro inh inactive.
O=C(N[C@H]1CO[C@H]2[C@@H]1OC[C@@H]2Nc1nccc(C2CCCC2)n1)c1ccco1 was read as nsP2pro inh inconclusive.

Arranged by count of non-hydrogen atoms (low to high): 3 of the compounds above
`CCOc1ccc2c(n1)CCN(C(=O)C1(c3ccccc3)CC1)C2` gave nsP2pro inh -6%.
Cc1cn2c(=O)cc(COC(=O)c3ccc(NC(=O)COc4ccccc4F)cc3)nc2s1 was read as nsP2pro inh -5%.
Screening COc1ccc(CCNC(=O)Cn2cc(S(=O)(=O)Cc3cccc(Cl)c3)c3ccccc32)cc1OC returned nsP2pro inh -6%.

Further records follow:
For Cc1cc(C[C@@H]2COC[C@@H]2NC(=O)c2cn(C)c3ccccc23)on1 the results were nsP2pro inh 0%.
For Cc1cccc(OC(=O)c2snnc2C)c1C the results were nsP2pro inh inconclusive.
`CCOc1ccccc1OCCCCn1c(-c2ccc(Cl)cc2)nc2ccccc2c1=O` gave nsP2pro inh -11%.
For CCc1ccc(Nc2nn(-c3ccc(OC(F)(F)F)cc3)nc2C(C)=O)cc1 the results were nsP2pro inh -14%.
For CCCCc1nnc(-c2cnn(C)c2N)n1CCCn1ccnc1 the results were nsP2pro inh -2%.
`Cc1c(C(=O)N(C)c2ccccc2)sc2nc(-c3ccc(F)cc3)cn12` gave nsP2pro inh -13%.
CC(Sc1nc(=O)cc(N)n1CCc1ccccc1)C(=O)Nc1ccccc1C#N (stereo not drawn) was read as nsP2pro inh -25%.
Clc1ccccc1CNC[C@H]1Cn2ccnc2CO1 was read as nsP2pro inh inactive.
COC(=O)CNC(=O)c1nc(-c2ccc(Cl)cc2)c2ccccn12 was read as nsP2pro inh inactive.
Cc1cccc(NC(=O)N[C@H]2CN(C)c3ccccc3C(c3ccccc3)=N2)c1 was read as nsP2pro inh inconclusive.
Cn1c(Cn2cccn2)nnc1C1CC(NC(=O)c2sccc2N)C1 (stereo not drawn) was read as nsP2pro inh 5%.
Screening COc1cccc(CCC(=O)N[C@@H]2CN(c3ncccn3)C[C@H]2CO)c1 returned nsP2pro inh inactive.
For C/C=C(\C)C(=O)OC1CC2C(CC=C3CC(OC4CC(OC)C(OC5CC(OC)C(OC6CC(OC)C(OC7CC(OC)C(OC8CC(OC)C(OC9OC(CO)C(O)C(O)C9O)C(C)O8)C(C)O7)C(C)O6)C(C)O5)C(C)O4)CCC32C)C2(O)CCC(C(C)=O)C12C (stereo not drawn) the results were nsP2pro inh inconclusive.
Cc1cc(NC(=O)CSc2ncc(C(=O)Nc3ccc(C)c(C)c3)c(=O)n2C)no1 was read as nsP2pro inh -18%.
`O=S(=O)(c1ccc(F)cc1)N1CCC(c2noc(C3CC3)n2)C1` (stereo not drawn) gave nsP2pro inh inactive.
Screening Cc1nc2c(C#N)c[nH]n2c(=O)c1C(C)C returned nsP2pro inh 5%.
Screening CC1=C(c2ccc(C)c(C)c2)S(=O)(=O)N=C1N1CCC(C(=O)Nc2ccc(Cl)cc2)CC1 returned nsP2pro inh -11%.
Screening COc1cccc(NC(=O)CSc2nc(=O)n(Cc3ccncc3)c3c2CCC3)c1 returned nsP2pro inh -10%.
`O=C(Cn1c(=O)n2nc(-c3cccc(F)c3)nc2c2ccccc21)NCc1ccc(Cl)cc1` gave nsP2pro inh -17%.
`CC(=O)c1ccc(N2CCN(C(=O)Cn3ncc4c3-c3ccccc3OC4)CC2)cc1` gave nsP2pro inh -14%.
Screening Cc1cccc(C(=O)NC2CCN(C#N)CC2)c1 returned nsP2pro inh 0%.
`Cc1cc(C)nc(NC(=S)N2CCN(c3ccc(NS(C)(=O)=O)nn3)CC2)c1` gave nsP2pro inh -8%.
For COc1cccc(-c2ccc3c(N)c(C(=O)c4ccc(Br)cc4)sc3n2)c1 the results were nsP2pro inh -15%.
COc1cc(OC(F)(F)F)ccc1C(=O)N1CCC(C)(C(=O)O)CC1 was read as nsP2pro inh -29%.
CC(=O)O[C@H]1CC[C@@]2(CI)C(=CC[C@@H]3[C@@H]2CC[C@]2(C)C(=O)CC[C@@H]32)C1 was read as nsP2pro inh inconclusive.
Screening Cc1ccccc1OCc1nc(C2CN(C(=O)c3nccc4ccccc34)C2)no1 returned nsP2pro inh 3%.
Screening O=C(Nc1ncc(Cc2ccc(C(F)(F)F)cc2)s1)c1cnc(-c2ccccc2)o1 returned nsP2pro inh -5%.
For CCOC(=O)CC(=O)Nc1ncnc2c1C(c1ccccc1)c1c(ccc3ccccc13)O2 (stereo not drawn) the results were nsP2pro inh inconclusive.
For O=C1c2ccccc2C(=O)c2oc(-c3ccc(F)cc3)nc21 the results were nsP2pro inh inconclusive.
Screening CNC(=O)c1ccc(N2C(=S)N(c3ccc(C#N)c(C(F)(F)F)c3)C(=O)C2(C)C)cc1F returned nsP2pro inh 1%.
For Cc1ccc(S(=O)(=O)Nc2cc(C)ccc2C(=O)Nc2nc(-c3ccccc3)cs2)cc1 the results were nsP2pro inh inactive.
Screening CCOC(=O)c1c(NC(=O)c2nc(SC)ncc2Cl)sc(C)c1C returned nsP2pro inh 23%.
For Cc1ccc2nc(CO[C@H]3CN(C4CCN(C)CC4)C[C@H]3F)[nH]c2c1 the results were nsP2pro inh inactive.
For O=C(COc1ccc(Cl)cc1)OCc1cc(=O)n2nc(-c3cccs3)sc2n1 the results were nsP2pro inh -13%.
`CCCN1CCCC[C@H]1C(=O)Nc1c(C)cccc1C` gave nsP2pro inh -2%.
Screening C=CCOC(Cn1ccnc1)c1ccc(Cl)cc1Cl (stereo not drawn) returned nsP2pro inh 63%[activator].
`CN1CCc2cc3c(cc2[C@H]1[C@@H]1OC(=O)c2c1ccc1c2OCO1)OCO3` gave nsP2pro inh -7%.
Screening CC1CCN(S(=O)(=O)N2CCC(C(=O)N3CCc4nc5cc[nH]n5c(=O)c4C3)CC2)CC1 returned nsP2pro inh inactive.
For O=C(CN1C(=O)COc2ccc(S(=O)(=O)N3CCCCCC3)cc21)N1CCN(c2ccc(F)cc2)CC1 the results were nsP2pro inh -17%.
For FC(F)(F)c1cc(-c2ccc(CNc3nc(-c4ccncc4)nc4ccccc34)cc2)ccn1 the results were nsP2pro inh -2%.

Random excerpt: two compounds from above, in no set order.
Screening O=C(Nc1ncc(Cc2ccc(C(F)(F)F)cc2)s1)c1cnc(-c2ccccc2)o1 returned nsP2pro inh -5%.
Screening CNC(=O)c1ccc(N2C(=S)N(c3ccc(C#N)c(C(F)(F)F)c3)C(=O)C2(C)C)cc1F returned nsP2pro inh 1%.

At a glance, part of the list above.
COc1ccc(C)cc1NC(=O)Cn1c(=O)oc2cc(S(=O)(=O)NCc3ccccc3)ccc21 was read as nsP2pro inh -20%.
Screening CCN(CC)c1cc(CCC(=O)NCCc2ccccn2)ccn1 returned nsP2pro inh inactive.
O=C(N[C@H]1CO[C@H]2[C@@H]1OC[C@@H]2Nc1nccc(C2CCCC2)n1)c1ccco1 was read as nsP2pro inh inconclusive.
For Cc1cc(C[C@@H]2COC[C@@H]2NC(=O)c2cn(C)c3ccccc23)on1 the results were nsP2pro inh 0%.

New compounds follow
Screening O=[N+]([O-])c1cc(S(=O)(=O)Nc2ccc(O)c3ccccc23)ccc1Cl returned nsP2pro inh 5µM*.
For CC(C)Sc1oc(-c2cccs2)nc1S(=O)(=O)c1ccc(Cl)cc1 the results were nsP2pro inh -24%.
`Cc1nn(C(=O)COc2ccccc2Br)c(C)c1Sc1ccccc1` gave nsP2pro inh inconclusive.
CN1CC(=O)N(C2CCCNCC2)Cc2c1ncnc2N1CCCC1CO (stereo not drawn) was read as nsP2pro inh -29%.
`CCOc1ccccc1NCc1nnc2n1CCCCC2` gave nsP2pro inh -17%.
`CC(C)c1ccc2c(c1)C(=O)CC1[C@@](C)(C(=O)O)CCC[C@]21C` (stereo partly drawn) gave nsP2pro inh 7%.
For CCOC(=O)C1=C(CN2CCC(C(=O)OCC)CC2)NC(=O)NC1c1ccc(Cl)cc1 (stereo not drawn) the results were nsP2pro inh -8%.
For O=S(=O)(NC1CCC(c2cc(F)ccc2F)(S(=O)(=O)c2ccc(Cl)cc2)CC1)C(F)(F)F (stereo not drawn) the results were nsP2pro inh -5%.
OC[C@H]1O[C@@H](Oc2cc(O)cc(/C=C/c3ccc(O)cc3)c2)[C@H](O)[C@@H](O)[C@@H]1O was read as nsP2pro inh 76%&-1%[activator].
O=C1Nc2ccccc2CN(CC2CC2)C12CCNC2 (stereo not drawn) was read as nsP2pro inh -7%[39.2 µM].
For Cn1cccc1CN1CCC(N2CCC[S+]2(=O)[O-])CC1 the results were nsP2pro inh 6%[39.2 µM].
For C/C(=C\c1csc(C)n1)[C@@H]1C[C@@H]2O[C@@H]2CCC[C@H](C)[C@H](O)[C@@H](C)C(=O)C(C)(C)[C@@H](O)CC(=O)O1 the results were nsP2pro inh -5%.
Screening CC(=O)NC(C(=O)OC1CCC(C)(C)C2CC=C3C(=O)OCC3C12C)C(C)C (stereo not drawn) returned nsP2pro inh -1%.
`O=C(COc1ccc2ccccc2c1Br)Nc1cccnc1` gave nsP2pro inh 4%.
`COCC1(c2nc(C3CCOCC3)nn2-c2ccccc2)CCC1` gave nsP2pro inh 1%.
Cc1ccc(-c2ccc3c(c2)C=C(C(=O)Nc2ccc(C[N+](C)(C)C4CCOCC4)cc2)CCC3)cc1 was read as nsP2pro inh 235%[activator].
COC1C=C([C@@H]2CC=C3[C@@]4(C)C(CC[C@]32C)[C@@]2(C)C=CC(=O)C(C)(C)C2C[C@H]4OC(C)=O)C(=O)O1 (stereo partly drawn) was read as nsP2pro inh inconclusive.
For O=C(CNC(=O)c1ccccc1)OC(C(=O)Nc1cc([N+](=O)[O-])ccc1F)c1ccccc1 (stereo not drawn) the results were nsP2pro inh inactive.
Screening CCCC(=O)O[C@]1(C(=O)COC(=O)CC)[C@@H](C)C[C@H]2[C@@H]3CCC4=CC(=O)C=C[C@]4(C)[C@@]3(F)[C@@H](O)C[C@@]21C returned nsP2pro inh 1%.
CC(C)CC(c1c(O)c(C=O)c(O)c(C=O)c1O)C1CCC(C)(O)C2CC(C(C)(C)O)CCC12C (stereo not drawn) was read as nsP2pro inh inconclusive.

Among those listed so far, these have bromine.
For COc1cccc(-c2ccc3c(N)c(C(=O)c4ccc(Br)cc4)sc3n2)c1 the results were nsP2pro inh -15%.
`Cc1nn(C(=O)COc2ccccc2Br)c(C)c1Sc1ccccc1` gave nsP2pro inh inconclusive.
`O=C(COc1ccc2ccccc2c1Br)Nc1cccnc1` gave nsP2pro inh 4%.

Going on with the list.
`Cc1ccc(NC(=O)C2CCCN(S(=O)(=O)c3ccc4c(c3)oc(=O)n4C)C2)cc1Cl` (stereo not drawn) gave nsP2pro inh -18%.
COc1ccc(C(c2c(O)c3ccccc3oc2=O)c2c(C)n(C)n(-c3ccccc3)c2=O)cc1 (stereo not drawn) was read as nsP2pro inh -10%.
Screening Cc1ccc(NC(=O)c2cnc(SCC(=O)N3CCOCC3)n(C)c2=O)cc1 returned nsP2pro inh -4%.
`CC(=O)NC(c1cc(Cl)c2ccccc2c1O)C(C)C` (stereo not drawn) gave nsP2pro inh inactive.
Cc1cccc(CS(=O)(=O)Cc2ccc(C(=O)NC(C)c3ccccc3)o2)c1 (stereo not drawn) was read as nsP2pro inh -6%.
For CC1=C(C(=O)NCc2cccc(Br)c2)C2(CCCCC2)OC1=O the results were nsP2pro inh -12%.
Screening COC/C=C/c1cc(F)c(S(=O)(=O)N2CCN(S(=O)(=O)c3ccc4c(c3)OCCO4)CC2)cc1F returned nsP2pro inh inactive.

An excerpt; rates above refer to the full screens.
